LANA-H2B inh: blocks KSHV LANA binding to histone H2A/H2B; Q9QR71; cell-free LANA-H2A/H2B peptide, fluorescence polarization; inhibition, % (test concentration not listed); actives 0.6% (n = 320,000); in the data active = inhibition mostly above about 10%, no sharp cut-off; inactive = mostly below about 6.7%;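 also: stock transfer was 7.5 nL into about 10 µL; 0% = median of vehicle wells and 100% = median of positive control wells; one replicate is shown; the record names a cut of 25% in any replicate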
E coli growth: inhibitors of Escherichia coli growth; OD600, 23 h; stronger effect = lower value; OD600 absorbance (concentration not given with the values); actives 0.21% (n = 330,000);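 active = OD600 absorbance below the run mean of sample wells minus 3.6 SD, in any replicate, cut at about 0.56 in these data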;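 also: stock transfer was 300 nL into about 60 µL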
UCH37 inh: human UCH37 deubiquitinating enzyme inhibition; purified proteasome/UCH37, Ub-AMC cleavage fluorescence; inhibition, % (test concentration not listed); actives 0.33% (n = 330,000);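 active = mean of two replicates above 20%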;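 also: 0% = compound-free wells with enzyme and 100% = wells lacking proteasome; stock transfer was 100 nL into about 20 µL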
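Reagent: Ub-AMC substrate; assay system: Proteasome-associated human UCH37 deubiquitinase; controls: no-proteasome and no-compound wells; read-out: % inhibition of Ub-AMC cleavage fluorescence; timing: 30 min preincubation with enzyme, 25 min cleavage at room temperature; signal: AMC fluorescence from Ub-AMC cleavage, excitation 355 nm, emission 460 nm; buffer or medium: Tris-HCl pH 7.4 plus ovalbumin, ATP-MgCl2, DTT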
ALR inh: inhibitors of human sulfhydryl oxidase ALR; P55789; purified ALR, DTT oxidation, H2O2 HRP-luminol luminescence; inhibition, % (test concentration not listed); actives 3.8% (n = 290,000); AID 485317;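 active = mean and each replicate at 75% or more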;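 also: stock transfer was 7.5 nL into about 7.5 µL; 0% = neutral wells and 100% = wells with inactivated enzyme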
Target sequence (P55789 whole entry, looked up): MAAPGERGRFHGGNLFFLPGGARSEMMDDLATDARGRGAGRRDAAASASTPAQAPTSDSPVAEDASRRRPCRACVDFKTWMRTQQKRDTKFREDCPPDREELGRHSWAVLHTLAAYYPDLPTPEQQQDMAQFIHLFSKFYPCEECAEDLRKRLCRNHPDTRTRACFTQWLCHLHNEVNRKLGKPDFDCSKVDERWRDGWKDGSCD
FGF22 binding: binders of recombinant human FGF22 by thermal shift; SYPRO orange fluorescence; percent of sucrose octasulfate shift, DMSO zero; calls only at 9.99 µM; actives 1.5% (n = 340,000); AID 651658;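 active = melting point raised past a set limit in the mean and every replicate; three in four hits are not shown here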
HNF4A DNA FP: change in binding of human HNF4 alpha to DNA; P41235; HNF4a-FITC DNA binding, fluorescence polarization, 1 h; actives 0.3% (n = 360,000); activity change, % at 10 µM; in the data active = activity change above about 30%, passing the limit was not always enough;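 also: controls were the assay level and a saturating level of protein; the project sought stronger binding though the title names inhibitors; some compounds called inactive have numbers as strong as hits; positive values seem to mean higher polarization but the record does not say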
Target sequence (P41235 whole entry, looked up): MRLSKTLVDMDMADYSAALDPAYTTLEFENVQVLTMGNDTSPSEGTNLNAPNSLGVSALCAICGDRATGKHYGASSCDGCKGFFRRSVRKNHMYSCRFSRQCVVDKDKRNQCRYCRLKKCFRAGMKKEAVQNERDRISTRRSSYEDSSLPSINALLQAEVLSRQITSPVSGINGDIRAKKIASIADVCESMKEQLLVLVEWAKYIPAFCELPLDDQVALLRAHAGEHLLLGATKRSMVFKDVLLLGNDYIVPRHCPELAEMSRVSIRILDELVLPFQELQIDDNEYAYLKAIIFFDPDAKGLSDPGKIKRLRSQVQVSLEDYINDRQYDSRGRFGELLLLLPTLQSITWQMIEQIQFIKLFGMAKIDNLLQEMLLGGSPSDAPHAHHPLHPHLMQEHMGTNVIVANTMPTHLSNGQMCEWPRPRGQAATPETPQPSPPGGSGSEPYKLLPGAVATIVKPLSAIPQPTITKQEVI
B2AR ag: agonists of human beta-2 adrenergic receptor inducing internalization; P07550; Am2.2-beta2AR cells, FAP receptor internalization, flow cytometry; reference of the scale not given here; response, % (no concentration beside the values); actives 0.43% (n = 340,000); AID 504454;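 active = response above a set limit, near 3 SD of response in nonfluorescent compounds, cut at about 42% in these data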;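 also: stock transfer was 100 nL into about 11 µL; a reference agonist was the positive control; negative values mostly stem from fluorescent compounds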
Target sequence (P07550 whole entry, looked up): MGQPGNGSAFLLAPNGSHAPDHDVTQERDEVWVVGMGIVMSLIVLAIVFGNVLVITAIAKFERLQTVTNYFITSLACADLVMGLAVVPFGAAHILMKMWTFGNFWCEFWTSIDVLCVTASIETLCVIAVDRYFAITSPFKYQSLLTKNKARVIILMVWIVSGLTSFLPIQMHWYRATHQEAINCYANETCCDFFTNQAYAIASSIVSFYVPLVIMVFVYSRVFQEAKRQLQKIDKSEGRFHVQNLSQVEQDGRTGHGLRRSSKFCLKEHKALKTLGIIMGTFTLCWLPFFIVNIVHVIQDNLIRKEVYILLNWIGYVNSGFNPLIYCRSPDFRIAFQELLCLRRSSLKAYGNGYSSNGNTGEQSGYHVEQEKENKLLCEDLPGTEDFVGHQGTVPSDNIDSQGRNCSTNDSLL
Starred values were filed as active, the others as inactive; i = inactive; nt = not tested or not shown.

SMILES	LANA-H2B inh	E coli growth	UCH37 inh	ALR inh	FGF22 binding	HNF4A DNA FP	B2AR ag
Cc1cc(OCCCCOc2ccc(C#N)cc2)ccc1[N+](=O)[O-]	0.3	0.7	7.1	3	i	-2.8	-5
CN1CCN(C(=O)c2ccc(-n3cccc3)cc2)CC1	1.7	0.71	1.6	-1	nt	0.2	-12
CC(=N)C1=C(O)CC(c2ccccc2)CC1=O (stereo unspecified)	6.8	0.66	3.2	-1	i	0.1	-3
CC(C)n1cc(NC(=O)c2cc(-c3ccccc3)on2)cn1	3.5	0.67	0.9	-4	nt	0.0	-9
Cc1nc(Nc2ccccc2Cl)sc1C(=O)Nc1ccccc1	-4.8	0.65	0.3	-3	i	-1.6	11
Cc1ccc(NC(=O)c2ccc3nccnc3c2)c(C)c1	-0.4	0.65	3.1	3	i	2.3	7
CC(Oc1ccc([N+](=O)[O-])cc1)C(=O)NCC1CCCO1 (stereo unspecified)	0.6	0.67	5.1	-8	i	-3.3	0
CCC(C)NC(=O)CSc1nc2c(sc3ccccc32)c(=O)n1CCCN1CCOCC1 (stereo unspecified)	1.3	0.72	7.1	-1	nt	-4.3	-6
COc1ccc(C(=O)Nc2ccc(Oc3ncnc4sc(-c5ccccc5)cc34)cc2)cc1OC	4.6	0.67	-42	-10	nt	1.6	-10
O=c1[nH]c(=O)n(-c2cc(Br)c(O)c(Br)c2)cc1Br	0.5	0.64	1.0	28	i	3.4	4
CCn1c(=O)n(CC)c2cc(N3CCCC3)c(NC(=O)c3ccccc3C)cc21	8.4	0.67	3.6	99*	i	-1.9	12
O=C(Nc1ccc(F)cc1)C1C2CCC3C(CCC21)C3(Cl)Cl (stereo unspecified)	-3.4	0.73	1.5	-1	i	-1.8	6
CCOC(=O)/C(C#N)=C/c1c(Oc2cc(C)cc(C)c2)nc2ccccn2c1=O	-7.2	nt	-0.3	0	nt	-2.3	31
CCOC(=O)C(=O)N/N=C(/c1ccccc1)c1ccc(OC)cc1	0.8	nt	nt	-7	i	-1.9	-3
CCc1noc(C)c1C(=O)NC1CCCc2c1cnn2-c1ccc(C(C)(C)C)cc1 (stereo unspecified)	0.4	0.7	-4.0	-10	i	4.6	4
COc1ccc(C2/C=C\CN(S(=O)(=O)c3ccc(C)cc3)[C@H](Cc3ccccc3)C(=O)N2Cc2ccc(F)cc2)cc1 (stereo partly specified)	-0.4	nt	4.5	20	nt	-2.1	-3
C=CCNC(=O)c1c(CSc2ccccc2)noc1C(=O)NCc1ccccc1	-2.3	0.67	0.5	1	i	-1.8	-19
O=C(Nc1ccccc1F)C(=O)Nc1cccc2ccccc12	0.4	0.69	2.6	-3	i	2.0	-3
CCCCN(C(=O)c1ccc(N2CCCC2=O)cc1)c1c(N)n(CCCC)c(=O)[nH]c1=O	-0.4	0.64	-0.9	3	i	0.2	-13
Cc1ccc(NC(=O)CNC(c2ccccc2)c2ccccc2)c(F)c1	9.7	0.69	3.1	-7	i	-4.3	-12
CC(=O)Nc1ccc(S(=O)(=O)NNC(=O)c2cccc([N+](=O)[O-])c2)cc1	1.2	0.64	1.4	8	i	0.1	1
COC1CCCN(C(=O)c2ccc3nc(Cc4cccc(Cl)c4)oc3c2)C1 (stereo unspecified)	0.5	nt	nt	0	i	-3.2	-2
O=C(NCCc1cn2ccccc2n1)c1cc(COc2c(F)cccc2F)on1	-0.3	0.55	-0.7	-4	nt	-3.3	-18
COC(=O)C(Cc1csc2ccc(Cl)cc12)NC(=O)c1ccc(Cl)cc1 (stereo unspecified)	-4.5	0.69	1.8	-2	i	7.0	-2
COc1ccc(S(=O)(=O)N(C)c2ccc(C(=O)N3CCC(C(N)=O)CC3)cc2)cc1OC	-2.2	0.71	3.0	-4	i	1.6	6
O=C(COc1ccc2ccccc2c1)Nc1cccnc1Cl	-0.8	0.7	4.7	1	nt	0.3	1
O=C1OCCN1c1c(-c2ccccc2)c(-c2cccs2)nc2c(-c3ccccc3)cccc12	1.9	0.71	-9.4	nt	nt	2.8	3
COCCNC(=O)Cn1nc(C(F)(F)F)cc1C	-1.0	0.67	1.0	-2	nt	-2.0	2
O=C(Nc1cc(S(=O)(=O)N2CCOCC2)ccc1N1CCOCC1)C1CCCO1 (stereo unspecified)	-0.9	0.71	1.5	0	nt	0.5	2
O=C(NC(=S)NCc1ccccc1)C1CCCCC1	0.6	0.74	6.8	-1	nt	-0.7	0
Cc1ccc(CNC(=O)C2CN(S(C)(=O)=O)c3cc(Cl)ccc3O2)cc1 (stereo unspecified)	5.6	0.68	3.0	-1	i	-2.0	-7
CCN(CC(=O)Nc1ccc(NC(C)=O)cc1)C(=O)c1ccc(=O)[nH]c1	2.3	0.67	0.7	-3	i	-3.6	-2
CCOc1ccc(C(C)C)cc1S(=O)(=O)N1CCN(C(=O)c2ccco2)CC1	5.3	0.69	1.8	-4	i	3.7	4
Nc1c(Cl)cc(C2=NCCn3c2c2ccccc2[n+]3[O-])cc1Cl	-3.0	0.63	2.9	-5	i	0.2	-2
COc1ccc(S(=O)(=O)N2CCOC2CNC(=O)C(=O)NCCc2ccccc2OC)cc1C (stereo unspecified)	3.7	0.79	2.5	nt	i	2.0	-1
O=C(Nc1ccc(Cl)cc1)N(Cc1cccs1)Cc1cccs1	-0.1	0.74	3.8	-4	nt	2.6	-12

Copied from the list:
In E coli growth, O=C(Nc1ccc(Cl)cc1)N(Cc1cccs1)Cc1cccs1 shows 0.74
In UCH37 inh, COc1ccc(C(=O)Nc2ccc(Oc3ncnc4sc(-c5ccccc5)cc34)cc2)cc1OC shows -42

Next part.
SMILES	LANA-H2B inh	E coli growth	UCH37 inh	ALR inh	FGF22 binding	HNF4A DNA FP	B2AR ag
COCCN1CCN(C(=O)c2cc(COc3ccc(F)cc3F)on2)CC1	0.6	0.71	1.6	-7	i	-1.4	0
C/C(Nc1ccc(Cl)cc1)=C(/C#N)C(N)=O	-0.7	0.71	0.1	7	nt	1.4	7
O=[N+]([O-])c1cc2c(cc1/C=N/Nc1nc(N3CCCC3)nc(N3CCCC3)n1)OCO2	-0.8	nt	nt	-18	nt	3.4	5
Cc1ccc(-c2cc(C(F)F)n3ncc(C(=O)Nc4c(C)nn(Cc5c(Cl)cccc5Cl)c4C)c3n2)cc1	-3.3	0.79	0.4	nt	nt	2.4	18
Cc1ccc(S(=O)(=O)N(C)C)cc1NC(=O)c1cncc(Br)c1	0.3	0.6	1.6	-5	i	-2.1	0
O=C(NCCCN1CCOCC1)c1ccc(Cl)c([N+](=O)[O-])c1	-2.6	0.72	3.8	-7	i	-2.6	-10
Cc1ccccc1-n1c(SCC(=O)N/N=C/C=C/c2ccccc2[N+](=O)[O-])nc2ccccc2c1=O	3.0	nt	nt	2	i	3.6	-4
COCCCNC(=O)CN1C(=O)c2cccc3cccc1c23	2.7	0.62	-36	-7	i	-3.7	7
CCN(Cc1ccc2c(c1)OCO2)C(=O)/C=C/c1cccc(Br)c1	4.9	0.67	-1.8	-2	i	0.8	-7
O=C(Nc1ccc(S(=O)(=O)N2CCCC2)cc1)c1cccnc1Cl	-2.0	0.64	1.6	-1	i	-0.7	4
Cc1ccc(S(=O)(=O)Nc2ccc(SC(F)F)cc2)c(C)c1	0.1	0.66	0.3	51	nt	-0.3	6
C=CCn1c(SCC(=O)NC(=O)NCC(C)C)nnc1C1CCCCC1	-2.1	0.69	4.6	9	nt	1.4	-3
Cc1cc(S(=O)(=O)NCc2ccc(N3CCN(C)CC3)cc2)c(C)s1	3.1	0.67	5.3	7	i	-1.7	0
O=C(CSc1nnc(-c2ccccn2)o1)Nc1cccc(Cl)c1	-3.0	0.67	1.6	0	i	1.3	-4
CC1C(=O)c2ccccc2CC1C(=O)O (stereo unspecified)	nt	0.66	3.7	nt	i	-1.4	-6
COc1ccc2[nH]c(C)c(C(=O)CN3CCN(C/C=C/c4ccccc4)CC3)c2c1	-1.9	0.71	3.1	nt	nt	-0.5	0
Cc1ccc(C(=O)CSc2nsc(C)c2C#N)cc1	-3.9	0.72	3.0	nt	nt	0.4	5
CCOC(=O)c1c(C)oc2cc(Br)c(OC)cc12	9.8	0.68	4.3	-19	nt	0.5	4
Cc1nn(CC(=O)NCCC2=CCCCC2)c(C)c1[N+](=O)[O-]	-12	0.64	-1.1	-44	i	3.2	-5
COc1ccc(OC)c(-n2c(-c3cc(-c4ccccc4)n[nH]3)n[nH]c2=S)c1	11	0.72	4.6	66	nt	-1.4	-4
C=C(c1ccccc1C)[n+]1ccccc1	0.4	0.61	5.3	-16	i	0.6	3
O=c1c2cc3c(cc2[nH]c(=S)n1Cc1ccco1)OCO3	1.4	0.68	4.6	64	nt	-0.4	11
Cc1ccc2c(c1)N(C(=O)CCC(=O)NCc1cccc(Br)c1)CC(C)O2 (stereo unspecified)	1.1	0.79	3.7	-2	i	2.4	-3
CCOC(=O)CSc1nnc(-c2c[nH]c3ccccc23)n1CC	2.4	0.68	1.0	-5	i	-1.5	29
Cc1cnc(C(=O)OCc2ccc(COC(=O)c3cnc(C)cn3)cc2)cn1	0.0	0.73	2.1	-3	i	-1.3	5
Cc1cccc([C@@H]2[C@@H]3C(=O)N(Cc4ccccc4)C(=O)[C@@H]3[C@]3(C)C(=O)N(c4cccc(F)c4)C(=O)N23)c1	-4.4	nt	0.0	29	i	-0.6	-2
Cc1cc(S(=O)(=O)N2CCOCC2)ccc1NC(=O)c1ccc(F)cc1	0.0	0.64	3.1	-19	i	3.0	-11
CCc1ccc(N(CC(=O)Nc2ccc(NC(C)=O)cc2)S(=O)(=O)c2ccccc2)cc1	-2.1	0.7	5.4	-4	i	-4.3	-1
Cc1nc(N2CCOCC2)nc(N2CCCCC2)c1[N+](=O)[O-]	-4.7	0.73	5.6	0	nt	0.4	6
CCCOc1ccc(C(C)=O)cc1CSc1nc(O)cc(=O)[nH]1	1.3	0.67	-0.2	99*	nt	2.7	0
CC(CCO)Nc1nc2c([nH]1)c(=O)n(C)c(=O)n2C (stereo unspecified)	1.1	0.71	-1.3	8	nt	2.1	7
Cc1ccc(C2(C)NC(=O)N(CC(=O)N(C)CC(=O)Nc3cccc(F)c3)C2=O)cc1 (stereo unspecified)	7.3	0.64	-0.4	-9	i	0.5	-6
O=C(COc1ncnc2cc([N+](=O)[O-])ccc12)NC1CCCCC1	-1.6	0.72	-1.3	-10	i	-4.6	-22
O=C(O)c1ccc(Cl)c(NC(=S)NC(=O)c2ccccc2[N+](=O)[O-])c1	-0.1	0.66	2.0	8	i	3.0	-3
Cc1ccccc1OCC(=O)NNC(=O)Nc1ccccc1	-4.8	0.68	0.4	13	i	1.9	7
Cn1c(=O)c2nnn(/N=C(\c3ccccc3)C3CC3)c2n(C)c1=O	1.6	nt	nt	-9	nt	-1.0	-7
COc1cccc(/C=C2\SC(=S)N(CCC(=O)NNC(=O)c3ccccc3OC)C2=O)c1	-4.9	0.72	5.8	1	i	2.2	-4
Fc1ccccc1-c1nc(NCc2ccccc2)c2ccccc2n1	-2.4	0.67	2.5	6	i	-6.2	-13
Cc1ccc(S(=O)(=O)N2CCOCC2)cc1NC(=O)COC(=O)c1cccnc1Cl	3.7	0.74	3.9	nt	i	-2.6	2
CN(C)CCCNc1cc(Cl)c(S(=O)(=O)N2CCCCC2)cc1C(=O)O	nt	0.64	8.6	nt	i	0.0	-9
COc1ccc(Cl)cc1NC(=S)NCCCN1CCCC1=O	1.8	0.63	0.4	-50	i	-1.9	5
O=S(=O)(NCc1ccco1)c1cccc2cccnc12	6.3	0.71	2.9	-29	nt	-2.1	1

Structures listed above shown as hits in ALR inh.
SMILES	LANA-H2B inh	E coli growth	UCH37 inh	ALR inh	FGF22 binding	HNF4A DNA FP	B2AR ag
CCn1c(=O)n(CC)c2cc(N3CCCC3)c(NC(=O)c3ccccc3C)cc21	8.4	0.67	3.6	99*	i	-1.9	12
CCCOc1ccc(C(C)=O)cc1CSc1nc(O)cc(=O)[nH]1	1.3	0.67	-0.2	99*	nt	2.7	0

Compound activity deposited in PubChem BioAssay by several laboratories.

These rows are one share of the data; count on the stated rates, not on these rows.
